# Mtb growth: Mycobacterium tuberculosis H37Rv growth inhibition, cell based, confirmatory dose response (AID 1949). actives 1.6% (n = 100,000). most inactive calls were filed without a number and no value below 0 was filed. inhibition, % at 10 µg/mL; hits with a dose series show IC50 in µg/mL;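 active means confirmed in a dose series; inconclusive means about 50% or more but not retested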;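 further: bacteria grown 7 days with compound before Alamar blue readout; 0% = untreated bacteria and 100% = reference antibiotic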
# An asterisk follows results filed as active; i = inactive; ? = inconclusive. An excerpt; count on the stated rates, not on these rows.
compound,Mtb growth
N#Cc1c(N)nc(C(Cl)(Cl)Cl)nc1-c1ccccc1,15%
COc1nc(C#N)c(N2CCOCC2)o1,0%
CCOc1cccc(C2CC(=O)Nc3cc4c(cc32)OCO4)c1 (stereo not given),2%
COC(=O)Oc1ccc2c(=O)c(Oc3ccccc3Br)c(C(F)(F)F)oc2c1,i
O=C(CC1Nc2ccccc2NC1=O)Nc1ccccc1OC(F)F (stereo not given),i
COc1ccccc1Nc1nc(N)nc(CN2CCOCC2)n1,1%
COc1ccc(-c2nn(C)c(=O)c3ccccc23)cc1NC(=O)COc1ccc([N+](=O)[O-])cc1,i
COc1ccc(C(C)C)cc1S(=O)(=O)N1CC(C)OC(C)C1 (stereo not given),i
CC(C)CCN1C(=O)c2ccc(C(=O)Nc3ccc4c(c3)OCO4)cc2C1=O,i
COc1ccc(NC(=O)CN(Cc2ccc(C)cc2)S(=O)(=O)c2ccccc2)cc1Cl,i
O=CN1CCN(C(=O)CC(c2ccccc2)c2cc(Br)ccc2O)CC1 (stereo not given),i
CCc1c(C)sc(NC(=O)C(Sc2ccccc2)c2ccccc2)c1C(N)=O (stereo not given),10%
O=C(Nc1ccc(Cl)cn1)c1ccc2c3c(cccc13)CC2,i
Cc1cc(C)cc(OCC(=O)Nc2cccc(-c3nc4cc(C)ccc4o3)c2)c1,i
COc1ccc(C(=S)N2CCN(c3cccc(Cl)c3)CC2)c(OC)c1,7%
Cc1ccc(CNC(=O)CSc2nc3ccccc3s2)cc1,4%
CCOC(=O)C1=C(C)NC2=C(C(=O)CCC2)C1c1ccc(OC)cc1 (stereo not given),i
CC(=O)c1cccc(N(CC(=O)NCCSc2ccc(Cl)cc2)S(C)(=O)=O)c1,i
CCOc1ccc(C(=O)Nc2scc(-c3ccc(F)cc3)c2C(=O)OC)cc1,i
CCOc1ccc2oc(C(C)(C)C)c(C(=O)OC)c2c1,i
O=c1oc2cc(OC/C=C/c3ccccc3)ccc2c2ccccc12,3%
CCOC(=O)c1ccc(NC(=O)C(=O)NCC2CCCO2)cc1 (stereo not given),i
CC(NC(=O)c1sc2ccccc2c1Cl)C1CCCO1 (stereo not given),i
CCCNC(=O)c1cc(SC)ccc1Cl,i
COc1ccc(-c2nn(-c3ccccc3)cc2/C=c2\sc3nc(-c4ccc(C)cc4)nn3c2=O)cc1,i

# Reprinted from the part before: 3 entries; new compounds follow.
compound,Mtb growth
CC(NC(=O)c1sc2ccccc2c1Cl)C1CCCO1 (stereo not given),i
CCCNC(=O)c1cc(SC)ccc1Cl,i
COc1ccc(-c2nn(-c3ccccc3)cc2/C=c2\sc3nc(-c4ccc(C)cc4)nn3c2=O)cc1,i
Cc1ccc2c(CC(=O)O)cc(=O)oc2c1,i
CCOc1cc(OCC)cc(C(=O)NC(=S)Nc2sc3c(c2C#N)CCC(C)C3)c1 (stereo not given),i
O=C(Cc1ccc(F)cc1)Oc1ccc(Br)cc1C(=S)N1CCOCC1,i
C=CCNC(=O)CN(C)S(=O)(=O)c1ccc(Cl)cc1,i
Cc1cc(F)ccc1NC(=O)C1CCCCC1C(=O)O (stereo not given),i
COc1ccc(C)cc1NC(=O)Cc1cccs1,i
Cc1coc(C)c1C(=O)CC1(O)C(=O)N(CCc2ccccc2)c2ccccc21 (stereo not given),i
c1ccc(CNc2nc(N3CCN(Cc4ccccc4)CC3)nc3ccccc23)cc1,1.5µg/mL*
Cc1cc(OCCCn2ccnc2)ccc1[N+](=O)[O-],i
Cn1c(=O)c2cn(Cc3ccc(Cl)cc3)cc2n(C)c1=O,i
CCCCc1ccc(NC(=O)c2ccc3ccccc3c2)cc1,1%
COc1cccc(-c2nnc(SCc3cccc(Br)c3)n2N)c1,3%
Cc1cc(C(=O)NC(C)C2CCCO2)no1 (stereo not given),i
CC(C)c1nnc(NC(=O)c2ccccc2Oc2ccccc2)s1,1%
CCN(CC)C(=O)c1ccc(NC(=O)c2cccc(Br)c2)cc1,i
O=C(COC(=O)c1ccco1)c1ccc(OC(=O)c2ccccc2)cc1,i
CCOC(=O)c1ccc(NC(=O)C2CCN(C(=O)c3cccs3)CC2)cc1,2%
CC(=O)N1N=C(c2cccs2)CC1c1ccco1 (stereo not given),6%
COc1cc(C#N)ccc1OCc1cccc(Cl)c1,27%
OC(COc1ccc2c(c1)OCO2)CN1CCN(c2ccccc2)CC1 (stereo not given),0%
O=C(Nc1ncn[nH]1)c1ccccc1CCc1ccccc1,0%
Cc1ccc(OCC(=O)Nc2cccc(NC(=O)COc3ccc(C)cc3)n2)cc1,0%
CC(NCc1ccccc1OC1CCCC1)c1ccccc1 (stereo not given),2%
Cc1cc(NC(=O)c2ccc(-c3ccccc3)cc2)c(C)cc1I,i
CCOc1ccc(NC(=O)c2cccc(C(F)(F)F)c2)c([N+](=O)[O-])c1,10%

# Shown with each value named: 2 of the compounds above.
COc1cc(C#N)ccc1OCc1cccc(Cl)c1
  Mtb growth: 27%

Cc1ccc2c(CC(=O)O)cc(=O)oc2c1
  Mtb growth: i

# (list continues)
compound,Mtb growth
COc1ccc(Cc2nnc(SCC(=O)Nc3nc(-c4ccccc4)cs3)n2C)cc1,i
CN(Cc1ccccc1)C(=O)C1CCCO1 (stereo not given),i
Cc1ccc(C(NC(=O)CCc2ccccc2)c2c(O)ccc3ccccc23)cc1 (stereo not given),2%
CCOc1cc(C(=O)n2cc(C)cn2)cc(OCC)c1OCC,i
CC(C)CNS(=O)(=O)c1ccc(CCC(=O)NCc2ccncc2)cc1,i
O=C(Nc1ccc([N+](=O)[O-])cc1)N1CCCCCC1,i
Cc1ccc(OCc2ccc(C(=O)Nc3ccc(F)cc3)o2)cc1C,i
Cc1ccc2[nH]c(C)c(CC(=O)O)c2c1,i
O=C(Nc1cccc2ccccc12)C1(c2ccccc2)CCOCC1,i
CCOc1cc(C=O)ccc1OCC(N)=O,i
CCOC(=O)c1c(NC(=O)C2CCCCC2)sc(C)c1-c1ccc(OC)c(OC)c1,26%
COc1ccc(C(=O)Nc2ccc(S(=O)(=O)Nc3c(C)cccc3C)cc2)cc1OC,i
CCc1cccc(NC(=O)C(NC(=O)c2ccccc2)C(C)C)c1 (stereo not given),i
Oc1ccccc1-c1cc(-c2ccco2)[nH]n1,5%
CN(C(=O)c1cnn2c(C(F)F)cc(-c3ccccc3)nc12)c1ccccc1,i
O=C(CSc1nnc(-c2ccncc2)o1)Nc1ccccc1Cl,i
CC(C)=C1C2CCC1C(C(=O)Nc1cc(F)ccc1F)C2C(=O)O (stereo not given),i
CC(=O)c1ccc(NC(=O)CCN2C(=O)C3C4CCC(C4)C3C2=O)cc1 (stereo not given),i
Nc1ncnc2sc3c(c12)CCCC3,i
COc1ccc(OC)c(NC(=S)NCc2cccs2)c1,i
CC(C)c1ccc(NC(=O)CN(c2cccc3ccccc23)S(C)(=O)=O)cc1,1%
O=C(NC(=S)Nc1ccc(Cl)cc1Cl)C1CCCC1,3%
O=C(Cc1c(F)cccc1Cl)Nc1ccccc1C(F)(F)F,i
COc1cc(C(=S)NCc2ccccc2)cc(Br)c1O,6%
CC(C)CN(CC(C)C)C(=O)CCC(=O)N(CC(C)C)CC(C)C,3%
O=C(NCCN1CCOCC1)c1cc(Br)ccc1Cl,i
CCOC(=O)c1ccccc1NC(=O)c1cccc(Cl)c1,i
N#Cc1ccccc1NC(=O)CC1CCCCC1,2%
CCc1ccc(OCC(=O)O/N=C(\N)c2ccccn2)c(Br)c1,i
CCOC(=O)C1=C(C)NC2=C(C(=O)CC(C)(C)C2)C1c1ccc2c(c1)CCCN2C (stereo not given),i
O=C(c1csc2c1CCCC2)n1cccn1,24%
O=C(Nc1ccc(Cc2ccncc2)cc1)c1c(F)c(F)c(F)c(F)c1F,i
O=C(c1ccc(NC(=S)NCc2ccco2)cc1)N1CCCCC1,i
COc1cccc(C(=O)N2CCN(Cc3ccc([N+](=O)[O-])cc3)CC2)c1OC,i
CN(Cc1ccccc1)C(=O)C(C)(C)Oc1ccc(Cl)cc1,3%
O=C(NCc1ccco1)c1cccc(COc2ccccc2Br)c1,8%
N#C/C(=C/c1c(F)cccc1Cl)c1cccc([N+](=O)[O-])c1,i
O=c1cc(Nc2cccc([N+](=O)[O-])c2)c2ccccc2o1,i
Clc1cccc(CSc2nnc3c(n2)[nH]c2ccccc23)c1,1%
CSc1cccc(NC(=O)Cc2cccc3ccccc23)c1,i
Cc1ccc(N2C(=O)C3C(=O)Oc4ccc(Br)cc4C3C3(CCCC3)C2=O)cc1 (stereo not given),i
O=S(=O)(c1ccc2c(c1)OCCO2)N1CCN(c2ccccc2F)CC1,i
CC12CC=CCC1C(=O)N(c1nccs1)C2=O (stereo not given),i
CCC(C)NC(=O)c1ccc(C)cc1C (stereo not given),i
CCOC(=O)CN1C(=O)C(O)(CC(=O)c2ccncc2)c2ccccc21 (stereo not given),i
Cc1cc(C(C)(C)C)ccc1OCCn1ccnc1,?
CCOc1ccc(CC2S/C(=N\N=C/c3ccc(N(C)C)cc3)NC2=O)cc1 (stereo not given),i
CCS(=O)(=O)n1nc(-c2ccc(OC)cc2)nc1SC,i
CCOc1ccc(N2C(=O)CC(N3CCC(C(=O)O)CC3)C2=O)cc1 (stereo not given),i
COc1ccc2ccc(OC)c(C=O)c2c1,i

# Shown with each value named: 4 of the compounds above.
canonical_smiles: O=C(c1ccc(NC(=S)NCc2ccco2)cc1)N1CCCCC1
  Mtb growth: i

canonical_smiles: COc1cccc(C(=O)N2CCN(Cc3ccc([N+](=O)[O-])cc3)CC2)c1OC
  Mtb growth: i

canonical_smiles: CN(Cc1ccccc1)C(=O)C(C)(C)Oc1ccc(Cl)cc1
  Mtb growth: 3%

canonical_smiles: O=C(NCc1ccco1)c1cccc(COc2ccccc2Br)c1
  Mtb growth: 8%

# Next part.
compound,Mtb growth
COc1ccc(CNS(=O)(=O)c2ccc(Br)s2)cc1,i
CC(C)C(NC(=O)c1ccccc1Cl)c1nnc(SCC(=O)Nc2ccccc2)n1C (stereo not given),i
CCOc1ccc(NS(=O)(=O)c2ccc(NC(=O)c3ccccc3[N+](=O)[O-])cc2)cc1,50%
COc1ccc(CC(=O)NCc2nnc(SCC(=O)Nc3ccc(OC)cc3)n2C)cc1,i
O=C(C1COc2ccccc2O1)N1CCCC1 (stereo not given),i
COc1ccc(CC(=O)Nc2ccc(S(=O)(=O)N(C)Cc3ccccc3)cc2)cc1,1%
O=C(CCN1C(=O)c2ccccc2C1=O)C[N+](=O)[O-],i
CC(C)OC(=O)C1C2C=CC3(CN(c4ccccc4Br)C(=O)C13)O2 (stereo not given),i
COc1ccccc1NC(=O)CSc1nnc(CC(=O)Nc2ccccc2)n1C,1%
O=C(O)CCc1ccc(-c2cccs2)n1-c1cc(Cl)ccc1Cl,i
C=CCOc1cccc(C2NC(=O)NC(C)=C2C(=O)OCC)c1 (stereo not given),i
N#C/C(=C\c1ccc(-c2ccccc2)o1)c1ccccc1,?
CCCCc1ccc2nc(N)sc2c1,13%
CCOC(=O)c1c(NC(=O)CSc2n[nH]c(N)n2)sc(C)c1C,i
Cc1ccc(C(C)C)c(OCc2nnc(SCC(=O)Nc3nc4ccccc4s3)o2)c1,i
COc1ccc(-c2csc(Nc3ccc(N(C)C)cc3)n2)cc1OC,i
Cc1cccc(C(=O)NC(=S)N2CCC(C)CC2)c1,3µg/mL*
CCOc1cccc(C(=O)NC(=S)Nc2cc(C(=O)O)ccc2C)c1,5%
CCOc1ccc(OCC(=O)NCc2ccco2)cc1,i
CC1CCN(C(=O)CCN2C(=O)c3ccccc3C2=O)CC1,i
CCN(CC)CCn1nc2c3c(cccc3c1=O)-c1ccccc1-2,5.5µg/mL*
O=C(Nc1cccc(Cl)c1)Nc1ccc([N+](=O)[O-])cn1,i
COc1ccc(OC)c(N(CC(=O)Nc2ccc(S(=O)(=O)N3CCCC3)cc2)S(=O)(=O)c2ccc(C)cc2)c1,i
O=C(NC(=S)Nc1ccc(I)cn1)c1ccc(Cl)cc1,3%
Cc1ccc(C(=O)NC(=S)Nc2cccc(C)c2)cc1,i
CN(CC(=O)Nc1ccc(Oc2ccccc2)cc1)S(=O)(=O)c1cc(Cl)ccc1Cl,i
COc1ccccc1NC(=O)C1CCC(C(=O)Nc2ccccc2OC)CC1 (stereo not given),i
COc1ccc(Cl)cc1NC(=S)Nc1ccn(C23CC4CC(CC(C4)C2)C3)n1,i
C#CC(CC)(CC)NC(=S)Nc1cccc(C(C)=O)c1,i
CCOC(=O)C1CCCN1C(=O)c1sc2ccccc2c1Cl (stereo not given),i
OCCN1CCN(C(=S)c2ccc(-c3ccccc3)cc2)CC1,5%
COC(=O)c1ccc(COC(=O)CNC(=O)c2ccco2)cc1,i
CCOC(=O)c1c(C)n2c3c(cc(C)cc13)CCC2,i
COCC(C)NCc1cccc(OC)c1OC (stereo not given),i
O=C(CCC1CCCCC1)Nc1ccc(Br)cc1F,i
CCOc1ccc(-c2oc3c(C)cc(C)cc3c(=O)c2O)cc1OC,i
Cc1cc(C)cc(NC(=O)COc2ccc3c(-c4ccccc4)cc(=O)oc3c2)c1,i
O=C(Nc1ccccc1C(=O)O)c1ccc(Br)o1,i
CCCc1cc(C(=O)NCCc2ccc(F)cc2)cs1,i
Cc1ccc(NC(=O)Nc2ccc(F)cc2)cc1Cl,i

# Not a retest: entries from further up.
compound,Mtb growth
CN(CC(=O)Nc1ccc(Oc2ccccc2)cc1)S(=O)(=O)c1cc(Cl)ccc1Cl,i
COc1ccccc1NC(=O)C1CCC(C(=O)Nc2ccccc2OC)CC1 (stereo not given),i

# Screens as filed in PubChem BioAssay.
